# Screening data (PubChem BioAssay)
# Rango release inh: qHTS Assay for Inhibitors of RanGTP induced Rango (Ran-regulated importin-beta cargo) - Importin beta complex dissociation; hit rate 0.071% among 340,000; AID 540253, 2011; Potency, µM (series often up to 46.1 µM), without a hit: at the top dose activity change, negative = inhibition; Biochemical FRET Rango-importin beta, RanGTP-induced dissociation; active means falling FRET ratio curve, often poorly fitted, with flat reads before Ran was added; inconclusive means other falling curves, or compound fluorescence or quenching; inactive means flat or rising ratio curve;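 also: potency is read from the fitted curve at half-maximal effect; % of control where 0% means no effect; nearly all actives have a fitted effect of over 45% in size; -100% = wells without RanGTP and RCC1; the record marks most hits as doubtful in a second field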
#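 Compounds sat 5 min at room temperature with 0.1 uM Rango biosensor plus 0.25 uM importin beta, then FRET pre-read. RanGTP-RCC1 (0.6 uM Ran, 2mM GTP, 0.2 uM RCC1) added for 45 min, and the CFP/YFP post-read measured blocked complex dissociation.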
# miR-21 FLuc: qHTS Assay for Modulators of miRNAs and/orActivators of miR-21; HeLa miR-21 FLuc reporter, luciferase, 48 h; Potency, µM (top dose mostly 38.3 µM), inactives show at the top dose reporter change, positive = more light; 340,000 tested, under 10 active; AID 2288, 2010; active = well fitted rising curve with a large enough effect; inconclusive = small, poorly fitted or top-dose-only effect; inactive = no such curve, though single readings can be large or run the other way;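 also: % of control where 0% means no effect; miR-21 action dims this reporter so a rising signal means less miR-21 action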
#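 Using DMEM plus 10% FBS, HeLa miR-21-FLuc cells are incubated with test compounds (final up to about 40uM) for 48 hours; firefly luciferase signal is then imaged following reagent-mediated lysis.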
# Rango complex inh: qHTS Assay for Inhibitors of Rango (Ran-regulated importin-beta cargo) - Importin beta complex formation. Importin subunit beta-1 (Homo sapiens), Q14974. hit rate 0.031% among 340,000. Potency, µM (doses to about 92.2 µM), for the others: at the highest dose inhibition of complex formation. Rango CFP/YFP FRET sensor + importin beta, 45 min; active = rising FRET ratio curve, often small or poorly fitted; inconclusive = mostly compound fluorescence or quenching in the first reads; inactive = flat curves in all reads;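 also: potency is read from the fitted curve at half-maximal effect; 0% = DMSO wells and 100% = buffer wells lacking importin beta; nearly all actives have a fitted effect of over 15% in size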
# Target sequence (Q14974 whole entry, looked up): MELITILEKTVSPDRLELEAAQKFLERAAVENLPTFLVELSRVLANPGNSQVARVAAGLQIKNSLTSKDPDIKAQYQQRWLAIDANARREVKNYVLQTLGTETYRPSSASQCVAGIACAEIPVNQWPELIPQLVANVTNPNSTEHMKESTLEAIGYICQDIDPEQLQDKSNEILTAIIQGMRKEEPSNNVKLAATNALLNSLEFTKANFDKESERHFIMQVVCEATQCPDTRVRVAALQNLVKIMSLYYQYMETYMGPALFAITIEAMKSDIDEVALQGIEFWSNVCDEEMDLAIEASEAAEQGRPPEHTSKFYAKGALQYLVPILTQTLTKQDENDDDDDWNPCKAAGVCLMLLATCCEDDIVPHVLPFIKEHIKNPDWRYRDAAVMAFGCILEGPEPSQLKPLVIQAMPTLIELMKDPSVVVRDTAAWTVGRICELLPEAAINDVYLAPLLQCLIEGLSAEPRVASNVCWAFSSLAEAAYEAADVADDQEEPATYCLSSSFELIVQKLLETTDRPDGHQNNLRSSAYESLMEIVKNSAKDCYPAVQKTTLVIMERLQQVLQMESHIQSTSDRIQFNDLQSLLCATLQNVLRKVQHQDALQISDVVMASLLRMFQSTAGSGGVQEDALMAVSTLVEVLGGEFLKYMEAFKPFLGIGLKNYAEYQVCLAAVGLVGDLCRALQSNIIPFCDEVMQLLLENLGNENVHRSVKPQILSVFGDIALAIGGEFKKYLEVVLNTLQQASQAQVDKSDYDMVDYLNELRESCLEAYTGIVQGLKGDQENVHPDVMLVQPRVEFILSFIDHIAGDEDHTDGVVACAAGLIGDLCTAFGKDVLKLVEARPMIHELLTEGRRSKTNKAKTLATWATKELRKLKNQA
#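 FRET biosensor Rango (snurportin 1 IBB between N-terminal EYFP and C-terminal Cerulean), 50 nM in PBS/1 mM DTT/0.02% Tween-20/0.1% BSA, preincubated 5 min RT with compound; 0.125 microM importin beta added, 45 min RT, CFP/YFP FRET ratio read.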
# GLA inh pH 4.5: qHTS Assay for Inhibitors of Human alpha-Galactosidase at pH 4.5; Alpha-galactosidase A (Homo sapiens), P06280; purified enzyme, 4-MU-alpha-Gal fluorescence, pH 4.5; activity change, negative = inhibition, % at 105 µM; 230,000 tested, under 10 active; AID 1467, 2008; inconclusive = small, poorly fitted or top-dose-only inhibition, or a rising curve; inactive = flat fitted curve, though single readings scatter; no compound was filed as active;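 also: 0% = full activity with enzyme and -100% = basal without enzyme; dose as in the result columns while the protocol names 77 µM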
# * = called active by the depositor; ? = inconclusive; . = no result given; & = joins results of further samples. Some of the compounds tested; rates above refer to the full screens.
1. Cc1ccc(-c2ccc(C3C(C#N)=C(N)Oc4n[nH]c(C)c43)o2)cc1 (stereo not drawn)
2. O=C(NC(=S)Nc1ccc2c(c1)OCCO2)c1ccccc1F
3. O=C(O)c1ccc2c(=O)n3cc(C(=O)c4ccccc4O)cc(Cl)c3nc2c1
4. C=CCOc1ccc(/C=C2\SC(=Nc3cccnc3)NC2=O)cc1
5. CC(C)COc1cc(=O)[nH]c(SCC(C)C)n1
6. Cc1ccc(NC(=O)Nc2ccc3c(c2)CCC3)c(C)c1
7. Cc1ccc(C(=O)Oc2coc(CSc3nnc(NC(=O)c4cccs4)s3)cc2=O)cc1C
8. O=C(Nc1ccc2nn(-c3ccccc3)nc2c1)c1ccc2c(c1)OCO2
9. CC(=O)c1c(C)[nH]c(C(=O)OCC(=O)NCCCc2ccccc2)c1C
10. CSCCC(N=C1NS(=O)(=O)c2ccccc21)C(=O)NCc1ccccc1F (stereo not drawn)
assay / compound	1	2	3	4	5	6	7	8	9	10
Rango release inh	?	-1%	3%	-10%	-4%	-12%	1%	-6%	24%	9%
miR-21 FLuc	-24%	-42%	0%	-12%	-27%	-12%	-16%	-8%	.	7%
Rango complex inh	?	-4.0%	-0.2%	?	3.4%	0.4%	7.0%	-0.3%	-5.7%	-0.4%
GLA inh pH 4.5	-20	5	-19	-9	8	.	-7	1	.	.

11. N#Cc1nc(Cc2ccccc2)oc1N1CCC(C(N)=O)CC1
12. COc1ccccc1C(=O)NC(CCSC)C(=O)NCCCn1nc(C)cc1C (stereo not drawn)
13. CC1(C)CC2CC(C)(CN2C(=O)COC(=O)Cn2[nH]c(=O)c3ccccc3c2=O)C1 (stereo not drawn)
14. CC1CCCC(NC(=O)CCNC(=O)c2ccccc2Cl)C1C (stereo not drawn)
15. Cc1cc(NC(=O)/C=C/c2ccccc2Cl)n(-c2nc3ccccc3[nH]2)n1
16. COc1ccc2[nH]c(=O)c(-c3noc(-c4ccccc4)n3)cc2c1
17. CC1=CS(=O)(=O)CC1SC(=S)N(C)C1CCS(=O)(=O)C1 (stereo not drawn)
18. Cc1cc(C(=O)OCC(=O)NC2CCC(C)CC2)c(C)o1 (stereo not drawn)
19. Cc1ccc(C(=O)CSc2nnc(COc3cccc(C)c3)o2)cc1
20. O=C(Nc1nncs1)c1cccnc1Cl
assay / compound	11	12	13	14	15	16	17	18	19	20
Rango release inh	-8%	-2%	1%	10%	-10%	?	-9%	-7%	-12%	-9%
miR-21 FLuc	-6%	.	-4%	.	-16%	-37%	-1%	.	-2%	0%
Rango complex inh	-0.1%	-0.4%	-0.3%	-0.2%	-1.5%	?	1.1%	5.2%	-6.9%	-3.3%
GLA inh pH 4.5	7	.	12	.	-6	-1	1	.	-4	-4

21. O=C(c1cc(Cl)cc(Cl)c1)N1CCC(=O)N(C(COCc2ccccc2)Cc2ccccc2)CC1 (stereo not drawn)
22. CCNc1cc(=O)n(C)c(=O)n1C
23. CNc1nc(-c2ccc3c(c2)CCN3S(=O)(=O)c2ccccc2)c(C)s1
24. COc1cc2nc(Nc3cccc(F)c3)nc(N)c2cc1OC
25. COC(=O)c1ccccc1NC(=O)COC(=O)c1ccc(C)c(NC(=O)c2ccco2)c1
26. CCOc1ccccc1NC(=O)Cn1cnc2c(nnn2-c2cccc(OC)c2)c1=O
27. CC(=O)C1=NN(c2ccccc2)C(c2cccs2)N1c1ccccc1 (stereo not drawn)
28. COC(C[C@@H]1O[C@H]1[C@@H](O)[C@@H](C)OCc1ccccc1)OC
29. CCOC(=O)N1C2=NC(C(=O)OC)=C(C(=O)OC)[C@@H]3N(C)c4ccccc4[C@]23C[C@H]1C(=O)OC
30. CC(C)N(CCCNC(=O)C1CCN(S(=O)(=O)N2CCOCC2)CC1)Cc1ccccc1
assay / compound	21	22	23	24	25	26	27	28	29	30
Rango release inh	3%	8%	9%	-6%	-6%	0%	.	-1%	0%	-3%
miR-21 FLuc	3%	-1%	0%	11%&12%	-5%	-2%	4%	2%	3%	-4%
Rango complex inh	1.4%	-5.7%	-0.8%	3.8%	-0.4%	-0.1%	.	-0.2%	4.1%	-1.5%
GLA inh pH 4.5	-23	2	7	.	0	-11	-2	-1	1&0	7

# 10 structures already listed, arranged by molar mass, low to high:
22. CCNc1cc(=O)n(C)c(=O)n1C
20. O=C(Nc1nncs1)c1cccnc1Cl
18. Cc1cc(C(=O)OCC(=O)NC2CCC(C)CC2)c(C)o1 (stereo not drawn)
27. CC(=O)C1=NN(c2ccccc2)C(c2cccs2)N1c1ccccc1 (stereo not drawn)
23. CNc1nc(-c2ccc3c(c2)CCN3S(=O)(=O)c2ccccc2)c(C)s1
26. CCOc1ccccc1NC(=O)Cn1cnc2c(nnn2-c2cccc(OC)c2)c1=O
25. COC(=O)c1ccccc1NC(=O)COC(=O)c1ccc(C)c(NC(=O)c2ccco2)c1
30. CC(C)N(CCCNC(=O)C1CCN(S(=O)(=O)N2CCOCC2)CC1)Cc1ccccc1
29. CCOC(=O)N1C2=NC(C(=O)OC)=C(C(=O)OC)[C@@H]3N(C)c4ccccc4[C@]23C[C@H]1C(=O)OC
21. O=C(c1cc(Cl)cc(Cl)c1)N1CCC(=O)N(C(COCc2ccccc2)Cc2ccccc2)CC1 (stereo not drawn)
assay / compound	22	20	18	27	23	26	25	30	29	21
Rango release inh	8%	-9%	-7%	.	9%	0%	-6%	-3%	0%	3%
miR-21 FLuc	-1%	0%	.	4%	0%	-2%	-5%	-4%	3%	3%
Rango complex inh	-5.7%	-3.3%	5.2%	.	-0.8%	-0.1%	-0.4%	-1.5%	4.1%	1.4%
GLA inh pH 4.5	2	-4	.	-2	7	-11	0	7	1&0	-23

# Remaining list, next part:
31. Cc1cc(-c2ccccc2)n(-c2cc(N/N=C/c3ccccc3O)ncn2)n1
32. CCO[C@@H]1OC(C(=O)N2CCCCCCC2)=C[C@H](c2ccc3c(c2)OCO3)[C@H]1CCCO
33. CCOC(=O)c1cc(-c2cccc(C(F)(F)F)c2)nc2nc(SC)[nH]c(=O)c12
34. CSC1=NSC2=NC(=O)/C(=C\c3coc4ccccc4c3=O)C(=N)N12
35. Nc1nc(COc2ccc(F)cc2Cl)nc(N2CCCCC2)n1
36. Cc1cccn2c(=O)c3cc(C(=O)NCCN4CCOCC4)c(=N)n(CCc4ccccc4)c3nc12
37. CC(=O)N1CCc2cc(S(=O)(=O)NCCC(=O)Nc3cccc(C)c3)ccc21
38. COC(=O)c1nc2cc(C)ccn2c1F
39. CN(CC(=O)Nc1c(Cl)cccc1Cl)C(=O)c1cccc(S(=O)(=O)NCc2ccccc2)c1
40. Cc1cc(C)n2c(SCC(=O)Nc3cc(S(=O)(=O)N(C)C)ccc3C)nnc2n1
assay / compound	31	32	33	34	35	36	37	38	39	40
Rango release inh	6%	21%	-10%	?	21%	?	1%	1%	0%	1%
miR-21 FLuc	21%	-4%	-16%	-12%	-16%	2%	-3%	-22%	.	.
Rango complex inh	2.3%	-1.7%	-0.5%	?	-0.3%	?	-1.7%	-3.2%	0.0%	-1.2%
GLA inh pH 4.5	0	-7	-5	0	-2	1	4	20	.	.

41. COc1ccccc1NC(=O)CN(Cc1ccccc1)S(C)(=O)=O
42. O=C(CSc1nnc(-c2ccccn2)o1)Nc1ccccc1
43. CCOc1cccc(C2C(C(=O)c3cccs3)=C(O)C(=O)N2Cc2cccnc2)c1 (stereo not drawn)
44. CCOC(=O)N1CCN(c2c(NCCc3ccccc3)c(=O)c2=O)CC1
45. CN1CCC(NC(=O)c2cc(-c3cccc(Br)c3)nc3ccccc23)CC1
46. Cc1ccc(N2C(=O)[C@@H]3C(c4cccnc4)=NO[C@@H]3C2=O)c(C)c1
47. Cn1nccc1C(=O)NC1CCN(Cc2ccccc2)CC1
48. CCN(CC)c1ncnc2sc(C(=O)N3CCN(c4ccc(OC)cc4)CC3)c(C)c12
49. O=c1c2ccccc2cnn1-c1ccc(Br)cc1
50. CCC(=O)c1cc(Br)ccc1OCC(=O)N1CCN(S(=O)(=O)c2ccccc2)CC1
assay / compound	41	42	43	44	45	46	47	48	49	50
Rango release inh	15%	-5%	-5%	-1%	0%	-9%	-10%	-8%	1%	-10%
miR-21 FLuc	-5%	-41%	2%	2%	-9%	-1%	-1%	-7%	-35%	.
Rango complex inh	0.3%	3.1%	0.2%	-0.4%	-0.8%	0.5%	0.7%	4.0%	-3.3%	-4.2%
GLA inh pH 4.5	-4	6	-3	6	.	0	.	-10	5	.

51. CCCCNC(=O)c1onc(CSc2cccc(F)c2)c1C(=O)O
52. Cn1cccc1C(=O)OCC(=O)NCc1cccs1
53. C/C(=N\NC(N)=S)c1ccc(Cl)s1
54. COC(=O)c1ccc(COC(=O)CNC(=O)C2CCCCC2)cc1
55. CC(Sc1nnc(-c2ccccc2F)n1C1CC1)C(N)=O (stereo not drawn)
56. Cn1nnnc1SCC(=O)NC(C)(C)C
57. CC(=O)Nc1nnc(CCN2CCCCC2)s1
58. OCCC1CN(Cc2ccsc2)CCN1C1CCCC1 (stereo not drawn)
59. O=C(NCC(F)(F)F)Nc1ncccn1
60. Cn1nc(C(F)(F)F)c2cc(NC(=O)OCC(C)(C)C)sc21
assay / compound	51	52	53	54	55	56	57	58	59	60
Rango release inh	-1%	5%	8%	6%	24%	4%	4%	-5%	-5%	-11%
miR-21 FLuc	-13%	.	26%	.	-4%	0%	-5%	0%	0%	-14%
Rango complex inh	4.4%	-4.3%	4.7%	3.5%	-0.1%	0.3%	3.4%	1.5%	3.7%	3.5%
GLA inh pH 4.5	10	.	-8	.	.	-4	2	3	1	-6

61. S=c1[nH]nc(CCc2ccc(Cl)cc2)o1
62. COCCN1CCN(Cc2nc(Cc3ccc(OC)c(OC)c3)no2)CC1
63. O=C(COc1ccc2ccccc2c1)Nc1cccc2cccnc12
64. c1ccc2[nH]c(CSc3ncnc4c3oc3ccccc34)nc2c1
65. O=C(CSc1nc(-c2ccc(F)cc2)cs1)NCCN1C(=O)CSC1=O
66. COc1cc2c(cc1OC)C(c1cc(C)ccc1C)CC(=O)N2 (stereo not drawn)
67. CCOCC(=O)Nc1ccc([N+](=O)[O-])cc1C
68. CCCCCN1C/C=C\C(c2ccc(OC)cc2)N(Cc2ccc(F)cc2)C(=O)C1 (stereo not drawn)
69. COC(=O)c1c(C)[nH]c(C(=O)CN2CCOCC2)c1C
70. COc1ccc(/C=N/NC(=O)Nc2cccc3nsnc23)c(OC)c1
assay / compound	61	62	63	64	65	66	67	68	69	70
Rango release inh	1%	-3%	2%	-2%	8%	1%	9%	-5%	-9%	?
miR-21 FLuc	-5%	-1%	-14%	-27%	-46%	-7%	0%	0%	-1%	-6%
Rango complex inh	-0.6%	-3.8%	0.4%	-4.0%	5.1%	0.4%	-0.4%	3.8%	2.9%	?
GLA inh pH 4.5	4	6	-3	7	?	.	-4	-4	1	-11

71. CCOC(=O)c1oc2ccccc2c1CN1CCCCC1
72. CCOC(=O)c1c(C)nc(SC)c(C#N)c1-c1ccccc1
73. CS(=O)(=O)N(CC(N)=O)Cc1ccc(Cl)cc1
74. COc1ccc(Nc2nc(NCCO)nc(OC)n2)cc1
assay / compound	71	72	73	74
Rango release inh	19%	-8%	4%	1%
miR-21 FLuc	2%	-17%	-3%	-2%
Rango complex inh	0.4%	3.6%	2.6%	-2.5%
GLA inh pH 4.5	2	-3	3	3
